# Calb FLC: C. albicans growth modulation with fluconazole; C. albicans CaCi-2 (fluconazole-resistant clinical isolate) + fluconazole, Alamar Blue growth, 48 h; growth inhibition, % (no concentration beside the values); 0.57% of 300,000 active;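 active = most replicates above 75%; inconclusive = exactly half above 75%; inactive = most below 75%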;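 also: all wells also contain fluconazole at 8 µg/ml as a sub-toxic cotreatment; 0% = median of DMSO wells and 100% = median of geldanamycin control wells; wells of about 8 µL received 7.5 nL stock; the first replicate is given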
# FGF22 binding: FGF22 (human) thermal shift binding. Q9HCT0. recombinant FGF22 thermal shift, SYPRO orange fluorescence; percent of sucrose octasulfate shift, DMSO zero. calls only at 9.99 µM. 1.5% of 340,000 active. AID 651658;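 active = melting point raised past a set limit in the mean and every replicate; inconclusive = no clear call; three in four hits are not shown here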
# Target sequence (Q9HCT0 whole entry, looked up): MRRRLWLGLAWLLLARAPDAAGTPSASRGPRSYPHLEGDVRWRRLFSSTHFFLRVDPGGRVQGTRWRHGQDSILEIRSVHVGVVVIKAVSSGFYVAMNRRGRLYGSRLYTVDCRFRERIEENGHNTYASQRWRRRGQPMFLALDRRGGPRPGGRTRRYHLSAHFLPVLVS
# Beta apoptosis: beta cell apoptosis inhibition; protection from apoptosis, % (concentration not given with the values); INS-1E cytokine-induced death, ATP luminescence, 48 h; percent of positive-control rescue, neutral wells zero; AID 435005; 0.8% of 300,000 active;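 active = all replicates at 75% or more, or half of them and the mean; inconclusive = half reach 75% but not the mean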;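 also: 0% = cytokine-treated negative control wells and 100% = positive control rescue; higher means more ATP so stronger rescue from cytokine killing; wells of about 40 µL received 100 nL stock; the first replicate is given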
# Ecoli rRNA inh: inhibits bacterial ribosomal RNA function over humanized ribosomes. E. coli WT GFP vs humanized-ribosome RFP mutants, fluorescence, 24 h; hits give low values; DMSO median 0, no signal -100. GFP signal change (wild-type ribosome), % (test concentration not listed). AID 720706. 1.6% of 350,000 active;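 active = significant combined selectivity score with lowered wild-type GFP, culture density cut under 30%, mutant RFP and density less affected; inactive = any of these conditions unmet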; also: one replicate is shown; some compounds called inactive have numbers as strong as hits
# AF4-AF9 inh: MLL-AF4/AF9 protein interaction inhibition. P42568. AlphaScreen, biotin-AF4 peptide binding to FLAG-AF9. inhibition, % at 10 µM. 0.47% of 350,000 active. AID 651704;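 active = every replicate reaching a set inhibition limit, whatever the replicate mean, cut at about 25% in these data; inconclusive = mean inhibition reaches that limit but some replicates miss it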;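 also: 0% = plate neutral control median and 100% = total signal loss; the record names both 10 and 1 µM as test concentration; the first replicate is given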
# Target sequence (P42568 whole entry, looked up): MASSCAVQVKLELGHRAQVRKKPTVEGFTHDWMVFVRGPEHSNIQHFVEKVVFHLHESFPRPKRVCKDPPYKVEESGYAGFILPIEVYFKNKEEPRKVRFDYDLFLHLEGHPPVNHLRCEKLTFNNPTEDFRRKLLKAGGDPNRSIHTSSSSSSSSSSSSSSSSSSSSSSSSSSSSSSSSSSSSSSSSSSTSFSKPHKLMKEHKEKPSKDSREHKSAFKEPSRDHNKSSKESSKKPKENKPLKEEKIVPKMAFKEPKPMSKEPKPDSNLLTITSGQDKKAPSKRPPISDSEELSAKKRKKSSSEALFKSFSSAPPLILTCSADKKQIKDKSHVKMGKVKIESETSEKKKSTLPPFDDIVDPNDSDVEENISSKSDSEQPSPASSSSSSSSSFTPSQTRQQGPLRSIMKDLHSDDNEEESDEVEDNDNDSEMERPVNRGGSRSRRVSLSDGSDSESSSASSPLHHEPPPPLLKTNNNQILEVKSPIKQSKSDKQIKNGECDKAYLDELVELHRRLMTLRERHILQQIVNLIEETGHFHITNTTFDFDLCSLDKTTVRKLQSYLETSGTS
# ALR H2O2 inh: inhibitors of human sulfhydryl oxidase ALR. AID 485317. P55789. 3.8% of 290,000 active. purified ALR, DTT oxidation, H2O2 HRP-luminol luminescence. inhibition, % (test concentration not listed);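 active = mean and each replicate at 75% or more; inconclusive = only one of the two met; inactive = neither met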;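 also: stock transfer was 7.5 nL into about 7.5 µL; 0% = neutral wells and 100% = wells with inactivated enzyme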
# Target sequence (P55789 whole entry, looked up): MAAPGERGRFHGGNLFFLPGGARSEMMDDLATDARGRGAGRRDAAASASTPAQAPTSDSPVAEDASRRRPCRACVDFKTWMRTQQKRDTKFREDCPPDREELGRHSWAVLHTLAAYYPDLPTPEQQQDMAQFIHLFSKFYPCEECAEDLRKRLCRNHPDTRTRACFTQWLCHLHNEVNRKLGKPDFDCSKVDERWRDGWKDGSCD
# T cruzi repl: T. cruzi replication inhibition; inhibition, % (no concentration beside the values); 1.4% of 300,000 active; T. cruzi beta-gal in NIH3T3, luminescence, 90 h;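 active = mean inhibition across valid replicates above about 55%, limit read from the data; inconclusive = mean below that limit but half or more replicates reach it; inactive = mean below it, under half of replicates reach it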;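 also: signal also drops with host cell toxicity which is not excluded here; 0% = plate median of DMSO wells and 100% = zero luminescence signal; higher percent means less beta-gal luminescence so fewer parasites; stock transfer was 50 nL into about 50 µL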
# RanGTP-Imp inh: disruptors of Ran-importin-beta complex formation – biochemical, FRET, CFP-Ran, YFP-importin-beta, homogeneous, primary screen; cell-free CFP-Ran/YFP-importin-beta FRET ratio; 1.1% of 300,000 active; inhibition, % (no concentration beside the values);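 active = most replicates above 15%; inconclusive = exactly half above 15%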;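 also: 0% = DMSO wells and 100% = Ran loaded with GDP instead of GTP; wells of about 40 µL received 100 nL stock; the first replicate is given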
# Ecoli rRNA inh OD600: second read-out of Ecoli rRNA inh, no call of its own (marks repeat the call); OD600 change, %; measured here: OD600 growth;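 optical density of the mix in the first replicate; 0 = DMSO median and -100 = no signal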
# Ecoli rRNA inh RFP: also measured in Ecoli rRNA inh; calls as there; RFP signal change, %; measured here: RFP humanized mutant strains;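 first replicate; 0 = DMSO median and -100 = no signal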
# The depositor's hits bear a star; i = inactive; ? = inconclusive; / = not tested or not shown.
SMILES,Calb FLC,FGF22 binding,Beta apoptosis,Ecoli rRNA inh,Ecoli rRNA inh OD600,Ecoli rRNA inh RFP,AF4-AF9 inh,ALR H2O2 inh,T cruzi repl,RanGTP-Imp inh
CCOC(=O)C1CCCN(CC(O)COCc2ccccc2OC)C1 (centres undefined),1,i,-6,5,7,-1.1,2.0,1,22,23
Cc1cc(C(=O)OCc2nnc(-c3ccccc3)o2)c(C)n1-c1ccccc1,-4,/,3,/,/,/,/,30,7,1.3
O=C(Cc1nc(-c2ccc(Br)s2)cs1)NCCN1CCOCC1,-6,/,-5,/,/,/,/,/,1,-2.9
CCN1C(=O)/C(=C/c2nc3ccccc3c(=O)n2-c2ccc(C)cc2)c2ccccc21,-1,i,-3,6,16,-5.0,-2.0,11,74*,0.3
COc1ccccc1NS(=O)(=O)c1ccc2c(c1)N(C(C)=O)CC(C)S2 (centres undefined),-6,i,2,-6,-10,1.8,0.2,-4,-7,-0.6
Cc1ccc(NC(=O)Cn2nc(C)c(S(=O)(=O)N(C)C)c2C)cc1C,-1,i,1,3,8,-0.9,-0.1,/,3,6.9
CC(=O)Nc1ccc(S(=O)(=O)Nc2ccc3c(c2)n(C)c(=O)n3C)c(C)c1,0,i,1,9,15,1.0,-0.5,-14,-11,0.8
COc1cccc(C(=O)COc2ccc(NC(=O)c3cccs3)cc2)c1,/,i,0,14,7,0.8,-1.0,2,5,/
COc1ccccc1-c1c(C)nn2c(N)c(-c3ccccc3)cnc12,-5,i,27,1,-30,-3.7,2.0,4,7,-1.5
CCOC(=O)c1sc(=S)n(CC)c1NC(=O)c1ccccc1C,3,i,-8,-5,6,-1.4,-2.5,-16,-1,-1.0
CCc1nccn1S(=O)(=O)c1ccc2ccccc2c1,3,/,3,/,/,/,/,-22,-17,-0.9
CC(C)Oc1ccc(CCC(=O)NNC(=O)c2ccccc2C(=O)O)cc1,-2,i,-2,19,9,1.9,0.0,-6,-4,7.2
CC(C)c1ccc(S(=O)(=O)N2CCN(C(=O)CCNS(=O)(=O)c3ccccc3F)CC2)cc1,1,i,/,5,1,6.7,-15,0,-5,-2.4
N#Cc1cn(Cc2ccncc2)c(=O)[nH]c1=O,-1,i,8,11,14,0.4,2.4,0,-15,2.6
O=C(CCn1cccc1)Nc1cc(F)ccc1F,-5,/,-6,/,/,/,/,/,-4,-2.0
CCCCNc1c(-c2cccc(-c3ccc(OC)cc3)c2)nc2ccc(C)cn12,9,i,92*,13,-1,7.1,6.4,/,54,4.1
Cc1cc(C)n(CCNC(=O)c2ccc3c(c2)OCO3)n1,16,i,0,3,10,-0.3,0.7,-6,-7,-3.9
CCCCSc1nnc2[nH]c(=O)cc(N)n12,40,/,-10,/,/,/,/,-5,-9,1.4
CC(C)OC(=O)C(C#N)c1nc2ccccc2nc1N1CCN(Cc2ccccc2)CC1 (centres undefined),0,/,3,/,/,/,/,-12,4,2.6
COc1ccccc1S(=O)(=O)Nc1ccc2nc(C)sc2c1,/,i,-4,-4,-2,8.9,1.9,/,/,/
Cc1cc(Cl)ccc1N1C(=O)CC(SCCC(=O)O)C1=O (centres undefined),10,/,1,/,/,/,/,25,-11,-1.9
CCOC(=O)c1ccccc1NC(=O)N[C@@H](C)C(=O)OC,0,i,0,15,19,-7.6,4.2,-2,0,?
C=C(C)C(=O)Nc1cccc(C2=NOC3(C2)C[C@@H](C(N)=O)N(C(=O)c2cc([N+](=O)[O-])cc([N+](=O)[O-])c2C)C3)c1 (some centres undefined),-1,i,1,5,16,1.4,-16,-10,-3,-1.5
CCN(CC)c1ccc(C(=O)OCC(=O)NC(C)(C)C)cc1,-1,i,-3,-6,-3,-1.1,-23,/,-14,3.8
O=C(c1cc(-c2ccc(Cl)cc2)nc2ccccc12)N1CCOCC1,-13,i,-1,-8,-10,3.0,5.9,-1,-11,2.3
Cc1ccc(S(=O)(=O)N(CC(=O)Nc2ccccc2C(=O)O)c2cccc(Cl)c2C)cc1,-6,/,-6,-55,-74,-17,-3.9,97*,13,2.3
CCSc1nnc(NC(=O)CCCOc2ccc(C)cc2)s1,4,i,-7,6,7,0.6,-1.8,5,3,4.6
COc1ccc(C(=O)Nc2ccccc2C(=O)NCc2cccnc2)cc1,13,i,-5,7,7,2.5,1.2,-1,-6,-0.6
Cc1ccc2oc3c(SCc4nc5ccccc5[nH]4)nc(C)nc3c2c1,/,i,0,-18,-26,27,5.2,2,/,/
CCN(CC)C(=N)N1c2ccccc2CCC1C (centres undefined),-3,i,-9,13,6,-5.8,-2.0,-55,0,-0.8
O=C(OC1CCOC1=O)c1cc(-c2ccc(Cl)cc2)nc2ccccc12 (centres undefined),-15,i,-15,1,-1,5.0,2.9,-5,2,-3.1
O=C(Nc1ccc(Cl)cc1)Nc1ccon1,39,i,10,-38,-34,-2.0,-1.8,-3,0,4.1
Cc1ccc(Nc2nc(N/N=C/c3c[nH]c4ccccc34)nc(N3CCOCC3)n2)cc1,21,i,-6,-6,-2,5.2,12,9,41,0.2
Cc1cc(C)c2c(N)c(C(=O)Nc3cccc(C)c3C)sc2n1,/,i,2,3,0,-2.4,-0.5,24,3,2.1
Cc1cc(NS(=O)(=O)c2ccc(NC(=O)CCCOc3ccccc3C)cc2)no1,-9,i,-6,-2,8,3.8,-1.1,-9,6,-0.8
COC(=O)c1ccc(/C=C2/SC(=S)N(CCCC(=O)Nc3ccccn3)C2=O)cc1,7,/,-12,/,/,/,/,3,11,-3.3
O=C(Cc1nnc(NC(=O)Nc2ccc(Cl)cc2)s1)NCc1ccccc1,14,i,-7,7,-4,2.3,-5.8,-1,-32,4.2
COc1cccc(NC(=O)C2C3C=CC4(O3)C2C(=O)N(CCN2CCCCC2)C4C(=O)NC2CCCCC2C)c1 (centres undefined),6,i,3,8,5,3.2,0.0,2,0,3.4
CSc1nc(C)cc(OCC#N)n1,-2,/,-5,/,/,/,/,-20,-6,-0.6
Cc1cccc(C)c1-n1c(C)nn(-c2ncc(C(F)(F)F)cc2Cl)c1=O,-4,i,-4,4,1,-0.6,-3.0,-14,-8,3.8
Cc1onc(-c2ccccc2)c1C(=O)NC(CC(=O)O)c1ccc(OC(C)C)cc1 (centres undefined),-9,/,-4,/,/,/,/,-3,-4,-1.0
COC(=O)CSc1nnc(C)n1-c1cccc(C#N)c1,15,/,-5,2,5,-1.5,/,3,-4,1.7
O=c1nc(N2CCOCC2)ccn1-c1nc(-c2ccccc2)oc1-c1ccccc1,-3,i,13,-6,1,-2.8,-26,1,10,?
COc1ccc(N2CC(C(=O)Nc3ncccc3C)CC2=O)cc1 (centres undefined),-2,/,-7,/,/,/,/,-3,10,1.6
O=C(Nc1ccc(O)cc1)c1cc2ccccc2c(=O)s1,-17,i,-3,-22,-23,-2.6,-1.3,-7,13,0.3
Cc1cc2nc(/C(C#N)=C\c3ccc(-c4ccccc4C(=O)O)o3)[nH]c2cc1C,6,i,0,17,4,8.3,0.6,46,-5,-102
C=CCn1cc(C(=O)N2CCc3ccccc3C2)c(=O)c2cc(S(=O)(=O)N(CC)CC)ccc21,9,/,1,/,/,/,/,-40,28,-1.1
O=C(Nc1ccc2c(c1)C(=O)NC2=O)c1ccc(S(=O)(=O)N2CCCC2)cc1,-1,i,3,4,8,-0.8,-16,32,-2,7.0
C[C@]12CCC3c4ccc(OCC(=O)O)cc4CCC3C1CCC2=O (some centres undefined),-1,i,-6,-1,-1,-6.6,-4.9,8,-4,-2.0
COC(=O)CCC(=O)OC1(C)C(=O)C=C2C=C(C3CC3)N(Cc3ccc4c(c3)OCO4)C=C2C1=O (centres undefined),24,i,0,7,10,6.4,-1.0,-18,16,-3.8
S=C(NN=C1CCCCCC1)Nc1ccc(Cl)cc1,-5,i,-1,-6,-1,-2.8,3.9,-46,-16,-0.2
CC(C)n1c(=S)[nH]c2cc(C(F)(F)F)ccc21,-3,i,-6,-1,-4,-3.1,0.4,26,-11,6.9
COc1ccc(NC(=O)NCc2ccc3c(c2)OCO3)cc1,-37,i,-5,5,-5,-1.3,-1.9,0,8,-1.9
Cc1ncoc1C(=O)N1CCc2c([nH]c3ccccc23)C1C1CCCCC1 (centres undefined),23,i,-1,3,0,3.4,10,2,14,?
FC(F)(F)c1cc(-c2ccccc2)nc(NCc2cccnc2)n1,1,/,2,/,/,/,/,0,3,0.9
CCSc1nnc(NC(=O)c2c(C)noc2C)s1,26,i,-1,1,1,-2.4,-2.4,4,-1,1.2
C/C(=N\NC(=O)CC(C)C)c1ccc(N2CCCCC2)cc1,6,i,2,10,-4,0.2,-3.5,4,11,1.5
Cc1cc(OCC(O)CN)ccc1Cl (centres undefined),18,i,0,4,14,0.8,3.7,-5,-16,-0.2
CC(=O)c1c(O)c(C)c(O)c2c1OC1=CC(=O)C(C(C)=O)C(=O)[C@@]12C (some centres undefined),9,i,/,-1,-3,1.4,-0.8,/,-9,2.1
CC1CCCCC1NS(=O)(=O)c1ccc(S(=O)(=O)N2CCCC2)cc1 (centres undefined),1,/,21,/,/,/,/,-3,-4,11
CCCCCCc1cc2cc(C(=O)NCc3ccccc3)c(=N)oc2cc1O,-20,/,16,-8,-10,21,/,2,-5,146*

# Filtered by structure: those above containing a COOH group (6)
SMILES,Calb FLC,FGF22 binding,Beta apoptosis,Ecoli rRNA inh,Ecoli rRNA inh OD600,Ecoli rRNA inh RFP,AF4-AF9 inh,ALR H2O2 inh,T cruzi repl,RanGTP-Imp inh
CC(C)Oc1ccc(CCC(=O)NNC(=O)c2ccccc2C(=O)O)cc1,-2,i,-2,19,9,1.9,0.0,-6,-4,7.2
Cc1cc(Cl)ccc1N1C(=O)CC(SCCC(=O)O)C1=O (centres undefined),10,/,1,/,/,/,/,25,-11,-1.9
Cc1ccc(S(=O)(=O)N(CC(=O)Nc2ccccc2C(=O)O)c2cccc(Cl)c2C)cc1,-6,/,-6,-55,-74,-17,-3.9,97*,13,2.3
Cc1onc(-c2ccccc2)c1C(=O)NC(CC(=O)O)c1ccc(OC(C)C)cc1 (centres undefined),-9,/,-4,/,/,/,/,-3,-4,-1.0
Cc1cc2nc(/C(C#N)=C\c3ccc(-c4ccccc4C(=O)O)o3)[nH]c2cc1C,6,i,0,17,4,8.3,0.6,46,-5,-102
C[C@]12CCC3c4ccc(OCC(=O)O)cc4CCC3C1CCC2=O (some centres undefined),-1,i,-6,-1,-1,-6.6,-4.9,8,-4,-2.0

# Some values from above.
# Under T cruzi repl, CC1CCCCC1NS(=O)(=O)c1ccc(S(=O)(=O)N2CCCC2)cc1 (centres undefined) has -4
# Under T cruzi repl, C[C@]12CCC3c4ccc(OCC(=O)O)cc4CCC3C1CCC2=O (some centres undefined) has -4

# 3 of the entries above in order of the AF4-AF9 inh value, rising.
compound	AF4-AF9 inh
COc1ccc(NC(=O)NCc2ccc3c(c2)OCO3)cc1	-1.9
CC(=O)c1c(O)c(C)c(O)c2c1OC1=CC(=O)C(C(C)=O)C(=O)[C@@]12C (some centres undefined)	-0.8
S=C(NN=C1CCCCCC1)Nc1ccc(Cl)cc1	3.9

# Screens: PubChem BioAssay, Broad Institute

# This is a subset (hit frequency here may not be typical).
